# Bioassay records as filed in PubChem.
# DUX4 txn inh = DUX4-mediated transcription inhibition; 293T-iDUX4 ZSCAN4-Gaussia luciferase reporter, 24 h; stronger effect = lower value; activity change, negative = inhibition, % (no concentration beside the values); hit rate 0.8% among 37,000; AID 1224904;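 active = -10% or lower and over 25 points stronger than a control reporter; inconclusive = -10% or lower with a smaller gap; inactive = above -10%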;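 also: 0% = median of neutral control wells and -100% = median of positive control wells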
# DUX4 txn inh difference = also measured in DUX4 txn inh; calls as there; Gaussia minus Italica difference, %; measured here: selective DUX4 reporter inhibition;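 worked out from the two reporters; negative = selective loss of the DUX4 reporter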
# DUX4 txn inh control = second read-out of DUX4 txn inh, no call of its own (marks repeat the call); activity change, negative = inhibition, %; measured here: Italica tet-on control reporter;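 0 = neutral control and -100 = positive control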
# An asterisk follows results filed as active; ? = inconclusive; . = not tested or not shown; & = joins results of further samples; ! = a repeat was not active.
# Values run as follows: DUX4 txn inh difference	DUX4 txn inh	DUX4 txn inh control
1) COc1ccc2c3c(n(C)c2c1)[C@@H](CO)N(C(C)=O)CC31CCN(C(=O)Nc2ccc(F)cc2)CC1
  -4	1	5.5
2) O=C(C[C@@H]1C=C[C@H](NC(=O)Nc2ccc(C(F)(F)F)cc2)[C@H](CO)O1)NCc1ccccn1
  0	-2	-2.1
3) COc1cccc(NC(=O)N[C@@H]2CC[C@H](CC(=O)N3CCN(C)CC3)O[C@@H]2CO)c1
  -10	-5	5.7
4) CO[C@H]1CN(C)C(=O)c2ccc(NS(C)(=O)=O)cc2OC[C@@H](C)N(S(C)(=O)=O)C[C@@H]1C
  -1	2	2.9
5) N#Cc1ccc(-c2ccc(C3[C@@H]4CN(S(=O)(=O)c5ccc(F)cc5)C[C@H]3N4)cc2)cc1 (some centres not stated)
  -27*	-16*!	12*
6) C/C=C/c1ccc([C@@H]2[C@@H](CO)N(C(=O)c3cnccn3)C23CN(C(C)=O)C3)cc1
  -2	-4	-2.2
7) CCC(=O)N1[C@H](CN(CC)C(=O)c2ccccc2)[C@H](c2ccccc2)[C@@H]1CO
  1	2	1.0
8) CCC(=O)N1CC2(C1)[C@@H](c1ccccc1)[C@H](CO)N2C(=O)NC(C)C
  1	4	2.3
9) COc1ccc2c3c(n(C)c2c1)[C@H](CO)NCC31CN(Cc2ccc(F)cc2)C1
  -1	1	2.6
10) COCC(=O)N(C)C[C@@H]1Oc2cc(-c3ccc(OC)cc3)ccc2S(=O)(=O)N([C@@H](C)CO)C[C@@H]1C
  0	2	2.7
11) CC(C)C#Cc1ccc([C@H]2[C@@H](CO)N3C(=O)CN(C(=O)C4CCCCC4)C[C@@H]23)cc1
  -9	0	9.3
12) OC[C@H]1[C@@H](c2ccc(-c3cccc(F)c3)cc2)[C@H]2CN(Cc3cncnc3)CCCCN21
  8	5	-3.1
13) C[C@H]1CN([C@@H](C)CO)C(=O)c2ccccc2-c2ccccc2CO[C@@H]1CN(C)C(=O)Nc1ccc(F)cc1
  3	3	-0.4
14) CCS(=O)(=O)N1CC2(CN[C@@H](CO)c3c2c2ccc(OC)cc2n3C)C1
  24	21	-3.4
15) CN(C)C(=O)C[C@@H]1CC[C@@H](NC(=O)Nc2cccc(F)c2)[C@H](CO)O1
  1	2	0.8
16) CCS(=O)(=O)N1CCC2(CC1)CN(C)[C@@H](CO)c1c2c2ccc(OC)cc2n1C
  -1	3	3.7
17) CO[C@H]1CN(C)C(=O)c2ccc(NC(=O)NC(C)C)cc2OC[C@@H](C)N(Cc2ccc(-c3ccccn3)cc2)C[C@H]1C
  -6	-2	4.6
18) C[C@@H]1CN([C@H](C)CO)S(=O)(=O)c2ccc(C#Cc3ccncc3)cc2O[C@@H]1CN(C)S(=O)(=O)c1ccc(F)cc1
  -7	-5	2.3
19) Cc1ccccc1-c1ccc([C@@H]2[C@H](CO)N3CCCCN(S(=O)(=O)c4ccc(F)cc4)C[C@@H]23)cc1
  .	?	.
20) O=S(=O)(N[C@@H]1CC[C@@H](CCn2cc(-c3cccnc3)nn2)O[C@H]1CO)c1ccc(Cl)cc1
  -4	0	3.5
21) CCC(=O)N1[C@H](CO)[C@H](c2ccccc2)C12CN(C(=O)Cc1ccccc1)C2
  2	3	0.5
22) CCC(=O)N1[C@H](CO)[C@H](c2ccccc2)C12CN(C(=O)c1cnccn1)C2
  3	8	4.7
23) C[C@@H]1CCCCO[C@@H](CN(C)Cc2ccc(C(F)(F)F)cc2)[C@@H](C)CN([C@H](C)CO)C(=O)c2cc(NC(=O)Nc3cccc4ccccc34)ccc2O1
  0	2	1.8
24) O=C(c1cccc(F)c1)N1CC[C@@H]2[C@H](CO)Nc3ccc(C#Cc4ccc(F)cc4)cc3[C@@H]21
  -28*	-42*	-14*
25) C[C@@H]1CN([C@@H](C)CO)C(=O)c2cc(C#C[C@@H](C)O)cnc2O[C@@H]1CN(C)C(=O)c1ccccc1F
  1	0	-1.4
26) O=C(NC1CCC1)[C@H]1[C@H](CO)[C@H]2Cn3c(ccc(-c4ccc(F)cc4)c3=O)[C@@H]1N2Cc1cocn1
  5	5	-0.9
27) C[C@@H]1CN([C@@H](C)CO)C(=O)c2cc(NC(=O)Nc3ccccc3)ccc2O[C@H]1CN(C)Cc1ccccc1
  0	1	1.1
28) C[C@H](CO)N1C[C@H](C)[C@@H](CN(C)Cc2ccc(C(F)(F)F)cc2)OCc2cn(nn2)CCCC1=O
  -1	-3	-1.0
29) CCCN1[C@@H]2Cn3c(ccc(C4=CCCC4)c3=O)[C@H]1[C@@H](C(=O)NCCOC)[C@@H]2CO
  0	-2	-2.0
30) O=C(C[C@H]1CC[C@H]2[C@@H](COC[C@@H](O)CN2Cc2cccc(Cl)c2)O1)N1CCOCC1
  7	7	0.6

# Single entries from the results shown.
# `C[C@H](CO)N1C[C@H](C)[C@@H](CN(C)Cc2ccc(C(F)(F)F)cc2)OCc2cn(nn2)CCCC1=O` in DUX4 txn inh shows -3
# `COc1ccc2c3c(n(C)c2c1)[C@H](CO)NCC31CN(Cc2ccc(F)cc2)C1` in DUX4 txn inh difference shows -1
# `CN(C)C(=O)C[C@@H]1CC[C@@H](NC(=O)Nc2cccc(F)c2)[C@H](CO)O1` in DUX4 txn inh control shows 0.8

# The results go on.
# Values run as follows: DUX4 txn inh difference	DUX4 txn inh	DUX4 txn inh control
31) COCC#Cc1ccc([C@H]2[C@@H](CO)N3C(=O)CN(C(=O)c4cccnc4)C[C@H]23)cc1
  0	7	7.5
32) COc1ccc2c3c(n(C)c2c1)[C@H](CO)N(Cc1cccnc1)CC31CN(C(=O)c2cccnc2)C1
  0	-1	-1.6
33) COCC(=O)N1[C@H](CN(C)C(=O)c2ccncc2)[C@@H](c2ccccc2)[C@@H]1CO
  0	-2	-2.1
34) C[C@@H]1CN([C@H](C)CO)S(=O)(=O)c2ccc(-c3cncnc3)cc2O[C@@H]1CN(C)C(=O)NC1CCCC1
  4	4	-0.4
35) CN1C(=O)c2cc(NC(=O)c3ccccc3F)ccc2OC[C@@H]2O[C@@H](CC(=O)NCc3ccc4c(c3)OCO4)CC[C@@H]21
  -2	5	6.3
36) COc1ccc2c3c([nH]c2c1)[C@H](CO)NCC31CCN(C(=O)C2CCCCC2)CC1
  -4	-7	-3.2
37) O=C(C[C@H]1CC[C@@H](NS(=O)(=O)c2ccc(F)cc2)[C@H](CO)O1)NC1CCCCC1
  4	1	-2.9
38) COCC(=O)Nc1ccc2c(c1)C(=O)N(C)[C@H]1CC[C@@H](CC(=O)NC3CCCC3)O[C@H]1CO2
  11	5	-6.2
39) N#Cc1cccc(-c2ccc(C3[C@@H]4CN(S(=O)(=O)c5ccccc5F)C[C@H]3N4)cc2)c1 (some centres not stated)
  -33*	-54*!	-21*
40) O=C(c1cccc(F)c1)N1CC2(C1)[C@H](c1ccccc1)[C@H](CO)N2C(=O)C1CCCCC1
  1	-5	-6.5
41) CS(=O)(=O)Nc1ccc2c(c1)[C@H]1C[C@@H](CC(=O)NCC(F)(F)F)O[C@H](CO)[C@H]1O2
  0	3	2.4
42) CO[C@@H]1CC[C@H]2CCOc3ccc(C#N)cc3C(=O)N(C)CCCC(=O)N(C)C[C@H]1O2
  1	-3	-3.7
43) COc1ccccc1CN1[C@H](CO)[C@H]2c3ccccc3N(C(=O)C3CCOCC3)C[C@H]21
  -1	0	1.5
44) O=C(Nc1ccc(F)cc1)N1[C@@H]2CNC[C@H]1C2c1ccc(-c2ccccc2)cc1 (some centres not stated)
  11&8	9&18	-1.6&10
45) O=C(c1ccccc1F)N1CC(=O)N2[C@H](CO)[C@H](c3ccc(-c4ccc(F)cc4)cc3)[C@@H]2C1
  -5	-4	1.1
46) CO[C@@H](CN(C)C(=O)c1cc(Cl)cc(Cl)c1)[C@H](C)CN(C(=O)Nc1ccc(F)cc1)[C@H](C)CO
  -4	-5	-1.3

# Four entries from above, with values ahead of the structure:
no. | DUX4 txn inh difference | DUX4 txn inh | DUX4 txn inh control | Compound
41 | 0 | 3 | 2.4 | CS(=O)(=O)Nc1ccc2c(c1)[C@H]1C[C@@H](CC(=O)NCC(F)(F)F)O[C@H](CO)[C@H]1O2
5 | -27* | -16*! | 12* | N#Cc1ccc(-c2ccc(C3[C@@H]4CN(S(=O)(=O)c5ccc(F)cc5)C[C@H]3N4)cc2)cc1 (some centres not stated)
19 | . | ? | . | Cc1ccccc1-c1ccc([C@@H]2[C@H](CO)N3CCCCN(S(=O)(=O)c4ccc(F)cc4)C[C@@H]23)cc1
35 | -2 | 5 | 6.3 | CN1C(=O)c2cc(NC(=O)c3ccccc3F)ccc2OC[C@@H]2O[C@@H](CC(=O)NCc3ccc4c(c3)OCO4)CC[C@@H]21

# A portion of the library; rates above refer to the full screens.
